HIV Env fusion = blocks HIV Env-driven cell-cell fusion; HeLa-JRFL Env/CEM21 cell fusion, luciferase; inhibition, % at 12.3 µM; 1.1% of 360,000 active;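 active = mean replicate inhibition score of at least 50 and every replicate individually at or above 50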;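 also: 0% = plate neutral controls and 100% = maraviroc near 300 nM; one replicate is shown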
MT1-MMP act inh = inhibitors of human MT1-MMP activation | HT1080 RFP-PRO-GFP cells, GFP/RFP ratio fluorescence, overnight; percent of plate control window, DMSO zero | GFP/RFP ratio change, % at 20 µM | 0.061% of 360,000 active | AID 651647;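 active = GFP/RFP ratio change of at least 30% with cell ATP level not reduced by more than half and red fluorescence within 50% of control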; also: strong numbers were not always called active
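Assay system: HT1080 cells carrying an RFP-PRO-GFP reporter | Dosing: Single dose of 20 µM compound, 1% DMSO final | Incubation: Cells overnight before dosing, compound overnight, 37 °C, 5% CO2 | Evaluation: GFP/RFP fluorescence ratio | Control set: DMSO and RFP-L50D-GFP cell wells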
Yeast UUG start = alters start codon recognition fidelity in yeast | AID 602363 | 0.13% of 350,000 active | S. cerevisiae UUG-firefly luciferase reporter, luminescence/redox ratio | activity score, % at 18.7 µM;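 active = replicate mean at a twofold rise or more, about +100% in these data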;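 also: firefly luciferase made from a UUG start codon reports start codon fidelity; reporter light over untreated wells divided by growth signal over untreated wells; some hits fall short of that in this replicate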
eIF4H FP inh = inhibitors of RNA binding by human eIF4H. Q15056. eIF4H fluorescence polarization binding assay. inhibition, % at 35 µM. 0.94% of 290,000 active. AID 2012;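 active = 50% or more with normal probe brightness, or confirmed in later tests; about a fifth of its hits are not listed in these tables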;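 also: calls also rest on retests at 20 µM and on dose response follow-up; 0% = protein and probe with vehicle and 100% = probe without protein; strong numbers were not always called active; many hits fall short of the cut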
PABP polyA inh = blocks human PABP binding to poly(A) RNA. P11940. fluorescence polarization. inhibition, % at 35 µM. 1% of 290,000 active. AID 2014;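 active = 50% or more with normal probe brightness, or confirmed in later tests; about a fifth of its hits are not listed in these tables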;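 also: calls also rest on retests at 20 µM and on dose response follow-up; controls were probe without protein and protein plus probe with vehicle; some compounds called inactive have numbers as strong as hits; many hits fall short of the cut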
Target sequence (P11940 whole entry, looked up): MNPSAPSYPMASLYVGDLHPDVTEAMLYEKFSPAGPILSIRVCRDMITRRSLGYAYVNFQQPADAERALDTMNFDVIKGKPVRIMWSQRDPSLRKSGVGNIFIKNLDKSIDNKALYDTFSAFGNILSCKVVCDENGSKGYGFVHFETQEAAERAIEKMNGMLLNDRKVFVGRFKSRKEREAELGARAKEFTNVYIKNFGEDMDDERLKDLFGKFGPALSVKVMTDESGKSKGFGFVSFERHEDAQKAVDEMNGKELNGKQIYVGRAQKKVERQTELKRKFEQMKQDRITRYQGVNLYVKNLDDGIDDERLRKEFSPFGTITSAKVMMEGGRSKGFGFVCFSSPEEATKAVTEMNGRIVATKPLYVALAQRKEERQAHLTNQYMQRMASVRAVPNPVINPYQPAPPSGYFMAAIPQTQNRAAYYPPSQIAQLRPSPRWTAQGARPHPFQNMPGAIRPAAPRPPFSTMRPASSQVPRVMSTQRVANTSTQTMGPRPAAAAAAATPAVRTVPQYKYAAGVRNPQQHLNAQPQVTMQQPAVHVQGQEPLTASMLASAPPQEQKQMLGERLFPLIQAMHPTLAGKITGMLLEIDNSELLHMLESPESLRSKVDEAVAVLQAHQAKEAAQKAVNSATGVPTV
CSC inhib = cancer stem cell inhibition; inhibition, % at 7.5 µM; cancer stem cell-like cells viability, luminescence; AID 2717; 1.1% of 300,000 active;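 active = mean at 75% or more and at least half the replicates too; tested in HMLE shEcad cells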;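 also: 0% = median of negative and 100% = median of positive control wells; the first replicate is given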
Rce1 inhib = inhibitors of yeast Ras-converting enzyme | 0.27% of 290,000 active | calls only | Q03530 | yeast membranes, quenched prenylated peptide cleavage fluorescence;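 active = fall in fluorescence gain of 50% or more versus controls, with final raw signal at or below 3038400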;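 also: plate controls were neutral control wells for no effect and wells lacking membranes for full effect; tested at 10 µM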
Target sequence (Q03530 whole entry, looked up): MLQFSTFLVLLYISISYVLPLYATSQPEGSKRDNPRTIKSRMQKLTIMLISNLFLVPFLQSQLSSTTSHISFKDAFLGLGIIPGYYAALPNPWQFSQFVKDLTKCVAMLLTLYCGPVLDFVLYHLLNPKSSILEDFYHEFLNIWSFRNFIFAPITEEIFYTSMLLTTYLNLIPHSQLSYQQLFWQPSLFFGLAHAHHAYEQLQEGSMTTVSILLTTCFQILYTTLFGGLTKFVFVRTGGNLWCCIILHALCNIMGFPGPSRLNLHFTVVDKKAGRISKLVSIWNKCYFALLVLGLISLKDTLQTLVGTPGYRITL
eIF4H FP inh retest = second read-out of eIF4H FP inh, no call of its own (marks repeat the call); inhibition, %; compound at 20 µM; confirmation average;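 mean of two retest wells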
PABP polyA inh retest = also measured in PABP polyA inh; calls as there; inhibition, %; compound at 20 µM; confirmation repeats;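 mean of two retest wells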
MT1-MMP act inh RFP = also measured in MT1-MMP act inh; calls as there; RFP signal change, %; measured here: RFP expression control read;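 0 = vehicle wells; hits needed this value within 50% of zero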
* = called active by the depositor; i = inactive; x = no result given.

SMILES | HIV Env fusion | MT1-MMP act inh | MT1-MMP act inh RFP | Yeast UUG start | eIF4H FP inh | PABP polyA inh | CSC inhib | Rce1 inhib | others
C[C@H]1CN([C@@H](C)CO)C(=O)CCCn2cc(nn2)CO[C@@H]1CN(C)C(=O)c1ccncc1 | 7 | -1 | 3 | -9 | x | x | x | x
COc1ccc([C@H]2CC(=O)C=C(c3cccc(Cl)c3O)C2)cc1OC | -8 | 0 | -5 | -13 | x | x | 1 | x
Cc1ccccc1NC(=O)CN1C(=O)S/C(=C/c2cccnc2)C1=O | 1 | -2 | 0 | -11 | x | x | 7 | i
CCCCn1c(SCC(=O)Nc2ccc3c(c2)CCC3)nc2ccccc2c1=O | 11 | -6 | -11 | -14 | 3 | -5 | -5 | i
COc1cc(S(=O)(=O)n2ccc(C)n2)c(OC)cc1Cl | -65 | -2 | 3 | -6 | 2 | 6 | 2 | i
Cc1cc(C)c2c(CC(=O)NC(C)C)coc2c1 | -5 | 2 | -2 | x | -3 | -2 | -10 | i
CC(C)(C)c1ccc(C(=O)N2CCC2(C)C(=O)NS(=O)(=O)c2ccccc2Cl)cc1 (stereo not drawn) | -11 | 0 | 5 | -9 | x | x | x | x
CCN(CC)c1ccc(/C=N/NC(=O)CNC(=O)c2cccnc2)cc1 | 13 | 0 | 0 | 1 | -3 | 1 | -7 | i
COC(=O)c1ccc(N2CCOCC2)c(NC(=O)c2cccnc2)c1 | x | -5 | 0 | -14 | 5 | 8 | -8 | i
Clc1ccc2c(c1)C=Nc1c(NCc3ccccc3)ncnc1O2 | 11 | 2 | -1 | -11 | -1 | -13 | -1 | i
CSc1ccccc1NC(=O)COC(=O)c1ccccc1Cc1ccccc1 | -6 | 0 | 1 | x | 2 | 6 | 0 | i
Cc1cc(NC(=O)CN2CCCCC2)n(-c2ccccc2)n1 | 17 | 3 | 0 | -21 | -1 | -4 | -2 | i
CCN(CC)S(=O)(=O)c1ccc(C(=O)N2CCN=C2SCc2cccnc2)cc1 | -31 | 4 | 0 | -19 | -6 | 2 | x | i
Cc1[nH]c(C)c(S(=O)(=O)N2CCN(c3cccc(C(F)(F)F)c3)CC2)c1C(=O)N1CCCCC1 | -14 | 7 | 6 | 4 | -4 | -8 | 36 | i
OCCCCNCc1ccc(OCc2ccc(Cl)cc2)cc1 | x | 3 | 3 | -13 | -1 | 4 | x | i
Cc1c(S(=O)(=O)N2CC(C)CC(C)C2)c(=O)n(C)c(=O)n1C (stereo not drawn) | -6 | 1 | 0 | -12 | 2 | 8 | -17 | i
CC(C(=O)NC1CCCCC1)N(Cc1ccc(F)cc1)C(=O)c1snc(C(N)=O)c1N (stereo not drawn) | 11 | 2 | 2 | 4 | -7 | 4 | x | i
CCCCn1c(SCC(=O)Nc2cc(C)[nH]n2)nc2ccsc2c1=O | 7 | 1 | -2 | -12 | -8 | -23 | -7 | i
CCC(=O)NC(c1cc(Cl)c2ccccc2c1O)C(C)C (stereo not drawn) | 4 | -25 | 0 | -8 | x | x | 12 | x
COc1ccc(C(=O)Nc2ccc3c(c2)C(=O)c2ccccc2C3=O)cc1OC | 3 | 7 | 5 | x | 31 | -9 | -7 | i
O=C(NCc1cccs1)c1cc(-c2ccccn2)nc2ccc(Br)cc12 | 12 | -4 | 0 | x | 9 | -9 | -1 | i
OC[C@@H]1CCCN1Cc1cn(-c2ccccc2)nc1-c1ccc2c(c1)OCO2 | 4 | -5 | -6 | -2 | -6 | -15 | -12 | i
CSc1ccc(/C=C/C(=O)OCC(=O)N2CCN(S(=O)(=O)c3ccc(C)cc3C)CC2)cc1 | 12 | 3 | -1 | -10 | x | x | -11 | x
COc1ccc(NC(=O)Cn2ncn3c(cc4ccccc43)c2=O)c(OC)c1OC | -11 | 0 | 2 | -18 | 6 | -8 | -11 | i
O=C(C1=C[C@H](C2CCCCC2)C[C@H](OCc2ccc(CO)cc2)O1)N1CCN(Cc2ccccc2)CC1 | 25 | -3 | -4 | 10 | 4 | 6 | 8 | i
Cc1ccc(S(=O)(=O)NCCCN(C)C)cc1 | x | 6 | 6 | -4 | -7 | 7 | 2 | i
Cc1ccc(C(=O)N/C(=C\c2ccco2)C(=O)N2CCSCC2)cc1C | 8 | 0 | 2 | x | 6 | -3 | x | i
COC(=O)c1c(NC(=O)Cn2cnc([N+](=O)[O-])n2)sc2c1CCC(C)C2 (stereo not drawn) | -35 | -5 | -7 | -13 | 1 | -4 | 15 | i
CC(=O)NC(=S)Nc1ccc(S(=O)(=O)N(C)Cc2ccccc2)cc1 | -2 | 4 | -7 | x | 4 | -8 | 6 | i
COc1cccc(-c2csc(N3CCN(C(=O)Nc4ccc(F)cc4)CC3)n2)c1 | -17 | -5 | -10 | -8 | 9 | 10 | -1 | i
CC(=O)Nc1nc2cc(N)ccc2s1 | -9 | 6 | 3 | -21 | x | x | 3 | x
COC(=O)C1C(O)CCC2CN3CCc4c([nH]c5ccccc45)C3CC21 (stereo not drawn) | x | -11 | 4 | -19 | 78 | 39 | 7 | i | eIF4H FP inh retest=28;PABP polyA inh retest=38
CN(C)CCCNc1cc(C(C)(C)C)nc2c(-c3ccccc3)cnn12 | -48 | 1 | 3 | -8 | 3 | -3 | 99* | i
Cc1ccccc1OC(C)C(=O)NCCCN1CCOCC1 (stereo not drawn) | 21 | 3 | 6 | -21 | -2 | -8 | -3 | i
Cc1cc(S(=O)(=O)N2CCCCC2)ccc1OCC(=O)N1CCOCC1 | -2 | 3 | 1 | -2 | -2 | -2 | 18 | i
COc1ccc(N(CC(=O)N2CCN(C)CC2)S(=O)(=O)c2cc(C)ccc2OC)cc1Cl | x | -4 | 2 | 3 | 4 | -4 | -15 | i
CN=C(NC1CCCCC1)c1ccc(Cl)cc1 | 8 | -3 | 1 | -18 | 6 | 1 | 3 | i
CCCc1nc(-c2cc3cc(C)ccc3[nH]c2=O)no1 | -1 | 2 | -2 | -3 | 2.5* | 62* | -18 | i | eIF4H FP inh retest=80*;PABP polyA inh retest=60*
Cc1ccc(/C(O)=C2/C(=O)C(=O)N(Cc3ccco3)C2c2cccs2)cc1 (stereo not drawn) | x | -1 | 1 | x | 1 | 2 | x | i
COc1ccc(CCNC(=O)Cn2c([N+](=O)[O-])cnc2C)cc1OC | -5 | 1 | 2 | 2 | -1 | 2 | -7 | i
OCCN=Cc1c(O)[nH]c2ccccc12 | x | 5 | 5 | -5 | -2 | -1 | -10 | i
c1ccc(CN2CCN(c3nc4ccccc4n4cnnc34)CC2)cc1 | -2 | 7 | 3 | -17 | -6 | 2 | -8 | i
CCOC(=O)C1CCN(S(=O)(=O)c2cc3c4c(c2)C(C)C(=O)N4CCC3)CC1 (stereo not drawn) | 14 | -1 | 2 | 13 | x | x | -14 | i
COc1ccc(C(=O)O)cc1S(=O)(=O)NCCc1ccccn1 | 5 | 5 | 9 | -18 | 1 | 1 | -4 | i
Cc1ccc(NC(=O)CSc2nc(=O)n(CCN(C)C)c3c2CCCC3)cc1Cl | 0 | -6 | -10 | x | x | x | -6 | i
O=C(O)CCCC(=O)Nc1ccc2c(c1)oc1ccccc12 | 9 | -2 | -1 | -11 | -7 | 1 | x | i
O=c1c2[nH]c3ccc(F)cc3c2ncn1CC1CCCO1 (stereo not drawn) | -4 | -2 | -2 | -15 | -6 | -6 | -2 | i
CC(Oc1ccc2ccccc2c1)C(=O)NNC(=S)NC(=O)c1ccco1 (stereo not drawn) | x | 7 | 6 | -43 | 15 | -8 | 40 | i
COc1ccc(CSc2nc(C)cc(C)c2C#N)cc1 | 10 | 2 | 1 | -15 | -4 | -2 | -3 | i
CCN(Cc1ccccc1)C(=O)c1cccs1 | 7 | 1 | 0 | -14 | x | x | x | x
CCOC(=O)c1cc(C#N)c(N2CCN(C)CC2)nc1-c1ccccc1 | -15 | -10 | -3 | -11 | 4 | 8 | x | i
C=CCNc1nc(Nc2ccc(Cl)cc2)nc(OC)n1 | -30 | -1 | -3 | x | -2 | 10 | x | i
COc1ccc(C)cc1NC(=O)C12CCC(C)(C(=O)O1)C2(C)C (stereo not drawn) | -63 | -2 | -2 | 0 | 2 | 6 | 4 | i
C(=C1c2ccccc2-c2ccccc21)c1ccncc1 | -121 | 1 | -1 | 10 | x | x | x | x
C=CC[C@@H](CC(=O)N[C@H](CO)Cc1ccccc1)C(=O)N[C@@H](COC(=O)[C@@H](CC=C)Cc1ccc(F)cc1)Cc1ccccc1 | 7 | -1 | -5 | -10 | x | x | 4 | x
COc1ccc(NC(=O)c2cc([N+](=O)[O-])ccc2N2CCCCC2)cc1OC | 7 | 4 | -5 | 0 | x | x | -16 | x
O=C(C1CC1)N1CCc2cc(Br)cc(S(=O)(=O)NCC3COc4ccccc4O3)c21 (stereo not drawn) | 27 | -1 | 1 | 12 | -4 | 2 | -11 | i
CCc1nc2ccc(C(=O)NCCc3ccc(OC)cc3)cc2nc1CC | 12 | 4 | -1 | 4 | -7 | 14 | 3 | i
Cc1ccccc1N1CCN(C(=O)[C@@H]2CCCN2C2=NS(=O)(=O)c3ccccc32)CC1 | 0 | 0 | -1 | x | x | x | -18 | x

Of the compounds above, 13 contain an aryl methoxy group:
SMILES | HIV Env fusion | MT1-MMP act inh | MT1-MMP act inh RFP | Yeast UUG start | eIF4H FP inh | PABP polyA inh | CSC inhib | Rce1 inhib | others
COc1ccc([C@H]2CC(=O)C=C(c3cccc(Cl)c3O)C2)cc1OC | -8 | 0 | -5 | -13 | x | x | 1 | x
COc1cc(S(=O)(=O)n2ccc(C)n2)c(OC)cc1Cl | -65 | -2 | 3 | -6 | 2 | 6 | 2 | i
COc1ccc(C(=O)Nc2ccc3c(c2)C(=O)c2ccccc2C3=O)cc1OC | 3 | 7 | 5 | x | 31 | -9 | -7 | i
COc1ccc(NC(=O)Cn2ncn3c(cc4ccccc43)c2=O)c(OC)c1OC | -11 | 0 | 2 | -18 | 6 | -8 | -11 | i
COc1cccc(-c2csc(N3CCN(C(=O)Nc4ccc(F)cc4)CC3)n2)c1 | -17 | -5 | -10 | -8 | 9 | 10 | -1 | i
COc1ccc(N(CC(=O)N2CCN(C)CC2)S(=O)(=O)c2cc(C)ccc2OC)cc1Cl | x | -4 | 2 | 3 | 4 | -4 | -15 | i
COc1ccc(CCNC(=O)Cn2c([N+](=O)[O-])cnc2C)cc1OC | -5 | 1 | 2 | 2 | -1 | 2 | -7 | i
COc1ccc(C(=O)O)cc1S(=O)(=O)NCCc1ccccn1 | 5 | 5 | 9 | -18 | 1 | 1 | -4 | i
COc1ccc(CSc2nc(C)cc(C)c2C#N)cc1 | 10 | 2 | 1 | -15 | -4 | -2 | -3 | i
C=CCNc1nc(Nc2ccc(Cl)cc2)nc(OC)n1 | -30 | -1 | -3 | x | -2 | 10 | x | i
COc1ccc(C)cc1NC(=O)C12CCC(C)(C(=O)O1)C2(C)C (stereo not drawn) | -63 | -2 | -2 | 0 | 2 | 6 | 4 | i
COc1ccc(NC(=O)c2cc([N+](=O)[O-])ccc2N2CCCCC2)cc1OC | 7 | 4 | -5 | 0 | x | x | -16 | x
CCc1nc2ccc(C(=O)NCCc3ccc(OC)cc3)cc2nc1CC | 12 | 4 | -1 | 4 | -7 | 14 | 3 | i

Source: PubChem

The list is partial; count on the stated rates, not on these rows.
